TDP1 cell noCPT – qHTS for Inhibitors of human tyrosyl-DNA phosphodiesterase 1 (TDP1): qHTS in cells in absence of CPT. DT40 Tdp1-/- hTDP1 cells, no CPT, ATP luminescence, 48 h. Potency, µM (titrated, usually from 46.2 µM), inactives show top-dose activity change, negative = growth inhibition, hits mostly inhibitors. 420,000 tested, 15% active. AID 686978, 2013; further: nearly all actives have a fitted effect of over 55% in size
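DT40 Tdp1-/-;hTDP1 cells, no CPT (DMSO vehicle only), 400 cells/well; compounds pin-transferred; ≥48 hr, 37 °C; CellTiter-Glo 30 min RT dark, luminescence read.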
TDP1 inh – qHTS Assay for Inhibitors of Tyrosyl-DNA Phosphodiesterase (TDP1); recombinant TDP1, AlphaScreen DNA substrate cleavage; Potency, µM (top dose mostly 130 µM), without a hit: at the highest dose activity change, negative = inhibition, actives largely listed as inhibitors; 350,000 tested, 0.28% active; further: nearly all actives have a fitted effect of over 40% in size
Target sequence (Q9NUW8 whole entry, looked up): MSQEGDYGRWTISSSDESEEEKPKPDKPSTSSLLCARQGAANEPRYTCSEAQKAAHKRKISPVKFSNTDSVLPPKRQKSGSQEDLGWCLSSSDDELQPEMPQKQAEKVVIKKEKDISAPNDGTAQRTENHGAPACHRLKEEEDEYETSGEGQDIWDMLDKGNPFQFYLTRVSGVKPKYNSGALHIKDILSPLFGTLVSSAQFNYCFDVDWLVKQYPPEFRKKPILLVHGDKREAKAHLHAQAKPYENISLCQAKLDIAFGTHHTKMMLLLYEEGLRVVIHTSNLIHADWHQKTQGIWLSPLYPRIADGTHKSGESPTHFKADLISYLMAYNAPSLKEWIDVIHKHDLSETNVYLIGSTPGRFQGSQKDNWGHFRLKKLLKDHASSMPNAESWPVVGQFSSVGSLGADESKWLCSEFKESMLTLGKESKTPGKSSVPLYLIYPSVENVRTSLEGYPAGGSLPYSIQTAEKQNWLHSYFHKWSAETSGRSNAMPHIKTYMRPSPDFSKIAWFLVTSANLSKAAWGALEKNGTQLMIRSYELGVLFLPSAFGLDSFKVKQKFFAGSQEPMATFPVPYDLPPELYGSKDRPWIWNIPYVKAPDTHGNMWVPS
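Recombinant human Tdp1 (E. coli-expressed, 1 nM final) preincubated with compounds 15 min at room temperature, then 5'-biotin/3'-phosphotyrosine-FITC DNA substrate (15 nM final) added for 5 min. AlphaScreen beads (10 ug/ml final) added 10 min; cleavage lowers signal.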
* = called active by the depositor; ? = inconclusive; nt = no result given; & = joins results of further samples. The call rests on the fitted dose curve; in most records, active means well fitted curve in the direction sought with a large enough effect; inconclusive means small, poorly fitted or top-dose-only effect, or another doubt; inactive means no such curve, though single readings can be large; an effect the other way counts as inactive or inconclusive. On the % scale 0 is the no-effect control and ±100 the full control effect; potency means the concentration at half of the fitted maximal effect.

SMILES | TDP1 cell noCPT | TDP1 inh
Cc1c(Cl)cccc1NC(=S)NN1CCOCC1 | -5% | 4%
Cn1c(CNC(=O)c2ccco2)nnc1SCCOc1ccccc1 | 5% | 8%
COC(=O)Nc1ccc(S(=O)(=O)N2CCN(c3ccc(F)cc3)CC2)cc1 | -21% | 7%
COc1cc(C(=O)Nc2cc(-c3cn4cccnc4n3)ccc2C)cc(OC)c1OC | -4% | 4%
COc1ccccc1NC(=O)C1CC(O)CN1C(=O)Oc1ccccc1 (stereo not given) | -4% | -11%
CCOC(=O)NC(=O)CSc1nc2ccc(C)cc2[nH]1 | 1% | 8%
Cc1ccc(NC(=O)CCNC(=O)c2ccccc2Cl)cc1S(=O)(=O)N(C)C | -12% | 2%
CC(=O)c1cc(C)ccc1OC(=O)CCN1C(=O)C2C3c4ccccc4C(c4ccccc43)C2C1=O (stereo not given) | ? | 1%
COc1ccc(-c2ncc(CN3CCN(CCC(C)C)C(CCO)C3)cn2)cc1 (stereo not given) | -17% | 3%
Fc1ccccc1OCCCCCN1CCCC1 | -20% | 7%
C=CCn1c(SCC(=O)Nc2ccc(NC(=O)c3ccco3)c(OC)c2)nnc1-c1ccncc1 | -29% | 2%
COC(=O)c1c(C)nn(-c2ccccc2)c1N | -1% | 4%
Cn1c(SCCN2CCCC2)nnc1C1CCN(S(=O)(=O)c2cccc(F)c2)CC1 | -21% | 3%
CC1C(=O)N2CCCc3cc(NC(=O)c4ccccc4F)cc1c32 (stereo not given) | -24% | 0%
NC(=S)NC1CCS(=O)(=O)C1 (stereo not given) | 10% | -2%
O=C(CSc1nccn(-c2ccc(F)c(F)c2)c1=O)NC1CCCC1 | -20% | nt
CNC(=O)c1[nH]cnc1C(=O)Nc1ccc(Cl)cc1 | ? | -1%
NC(=O)C1CCN(c2ncccc2[N+](=O)[O-])CC1 | -10% | -2%
Cc1ccc(NNC(=O)c2c(F)cccc2Cl)cc1Cl | -9% | -2%
COc1ccccc1NS(=O)(=O)c1cccc(C(=O)N/N=C(\C)c2ccncc2)c1 | 0% | 8%
Cc1cc(C)c2c(CN3CCOCC3)cc(=O)oc2c1C | -28% | 5%
CCOC(=O)CCCNC(=O)CCNC(=O)c1ccc(OCC(C)C)cc1 | 2% | -1%
NCc1cccc(CNc2ccc([N+](=O)[O-])cc2C(N)=O)c1 | ? | 0%
O=C(Cn1ccc([N+](=O)[O-])n1)N1CCc2ccccc21 | 1% | 0%
COc1ccc(NC(=O)Cn2c(=O)n(Cc3ccco3)c(=O)c3ccccc32)cc1 | -3% | 0%

Other entries.
SMILES | TDP1 cell noCPT | TDP1 inh
Cc1c(C(=O)NC(C)CN2CCCCC2)oc2ccccc12 (stereo not given) | -17% | 3%
Cc1nc2c(C(=O)NCc3cccs3)cnn2c(C)c1Cc1ccc(F)cc1 | nt | 2%
Clc1cccc(CN2CCN(Cc3nc(CCc4ccccc4)no3)CC2)c1 | -13% | -4%
CCN(CC)S(=O)(=O)c1ccc(Cl)c(C(=O)NC(C)C(c2cccs2)N2CCCC2)c1 (stereo not given) | 15µM* | 8%
Cc1csc(=O)n1CC(=O)OCC(=O)Nc1ccccc1C(C)C | 7% | 1%
COCCN1C(=O)C(O)=C(C(C)=O)C1c1ccc(OC)c(OC)c1 (stereo not given) | -7% | -4%
CN(C)C(=O)CSc1nnc([C@H](Cc2ccccc2)NC(=O)OC(C)(C)C)o1 | -7% | 7%
Cn1cc(Cl)c(C(=O)NC2CCCCCC2)n1 | -12% | -5%
O=S1(=O)CC(NCc2ccccc2)C(Nc2ccccc2)C1 (stereo not given) | 3% | 0%
O=C(Nc1ccc(N2CCCC(O)C2)cc1)c1snc2c(=O)[nH]cnc12 (stereo not given) | 1% | 3%
O=C1OC2(CCCC2)OC(=O)C1=Cc1c[nH]c2ccccc12 | -19% | -6%
COCCn1c(SCC(=O)N2CC(=O)Nc3ccccc32)nc2ccccc2c1=O | 4% | 6%
CCCCS(=O)CC(COC)OC(=O)c1ccccc1 (stereo not given) | ? | 3%
O=C1c2ccccc2C(Nc2ccc(Cl)cn2)N1c1ccccn1 (stereo not given) | ? | 3%
Cc1cccc(NC(=O)CCC(=O)OCc2ccc(Br)cc2)c1 | -15% | -6%
NS(=O)(=O)c1ccc(CNC(=O)c2ccc(Br)o2)cc1 | -13% | -2%
Cc1ccc(N2C(=O)C3ON(c4ccccc4)C(CC(C)C)C3C2=O)cc1 (stereo not given) | -9% | 0%
C=CCn1c(=O)c(C(=O)NCCNCC)c(O)c2ccccc21 | -10% | 4%
Cc1cccc(NC(=O)Cn2cnc(S(=O)(=O)N3CCCC3)c2)c1C | 15%&7% | 1%&7%
CC(C)(C)c1ccc(C(CC(=O)O)NC(=O)CSc2ccccc2)cc1 (stereo not given) | 1% | 0%
Cn1c(=O)[nH]c(=O)c2c1nc(SCC(=O)O)n2CCOc1ccccc1 | -6% | nt
O=C(C1CSC2(c3ccc(F)cc3)CCC(=O)N12)N1CCCCCC1 (stereo not given) | -23% | 2%
COc1ccc(CCNC(=O)Cn2c(=O)oc3ccccc32)cc1OC | -12% | 5%
O=C(NS(=O)(=O)Oc1ccc(Cl)cc1)OC[C@@H]1CCCN2CCCC[C@H]12 | 13% | -3%
O=C(CN(c1ccc(F)cc1)S(=O)(=O)c1ccc2c(c1)OCCO2)NCC1CCCO1 (stereo not given) | 1% | -3%

Among those listed so far, these have a COOH group.
SMILES | TDP1 cell noCPT | TDP1 inh
CC(C)(C)c1ccc(C(CC(=O)O)NC(=O)CSc2ccccc2)cc1 (stereo not given) | 1% | 0%
Cn1c(=O)[nH]c(=O)c2c1nc(SCC(=O)O)n2CCOc1ccccc1 | -6% | nt

(listing goes on)
SMILES | TDP1 cell noCPT | TDP1 inh
CCOC(=O)C1CCN(C(=O)CN(c2ccc(Oc3ccccc3)cc2)S(C)(=O)=O)CC1 | ? | 0%
CCN(CC)S(=O)(=O)c1ccc2c(c1)N(CC(=O)NCCc1ccc(S(N)(=O)=O)cc1)C(=O)CO2 | -8% | 0%
CN(C)S(=O)(=O)c1ccc(S(=O)(=O)NC2CCOC(C)(C)C2)cc1 (stereo not given) | 0% | -2%
O=C(CCN1C(=O)C2CC=CCC2C1=O)Nc1cc(C(F)(F)F)ccc1N1CCCC1 (stereo not given) | -5% | 1%
O=C(NC1CCCCCC1)C1CCN(C(=O)c2cccc(Cl)c2)CC1 | -2% | -7%
CC(C)Oc1ccc(C2CNC(=O)C2)cc1 (stereo not given) | -13% | 1%
COc1cccc(NC(=O)CSc2nncn2N)c1 | -10% | 7%
Cc1ccc(C)c(NC(=O)CN2C(=O)COc3ccc(Cl)cc32)c1 | -6% | 3%
O=C(COC(=O)CCc1ccc(S(=O)(=O)N2CCOCC2)cc1)NC1CCCC1 | -10% | 1%
O=C(NCC1CCCO1)c1onc(CSc2ccccc2F)c1C(=O)O (stereo not given) | -5% | 5%
O=C(N/N=C/c1ccc[nH]1)c1ccc([N+](=O)[O-])cc1 | -24% | 6%
Cc1ccc(NC(=S)NCCN2CCOCC2)cc1F | 12% | 1%
Cc1cccc(C)c1NC(=S)N1CCC(N(C)CC2CCCO2)CC1 (stereo not given) | 0% | 6%
Nn1c(SCC(=O)NCCc2ccc(S(N)(=O)=O)cc2)nnc1C1CCCCC1 | 13% | 0%
CC1CC(C(F)(F)F)n2ncc(C(=O)O)c2N1 (stereo not given) | -2% | -2%
Cc1ccc([N+](=O)[O-])cc1NC(=O)CN(C1CCCCC1)S(=O)(=O)c1ccc(Cl)cc1 | ? | 5%
COC(=O)Cc1ccc(NC(C)=O)cc1 | -2% | 1%
Cc1ccccc1OCC(=O)O/N=C(\N)Cc1ccc(Cl)cc1 | -28% | nt
Cc1cccc(C)c1NC(=O)CN(C)S(=O)(=O)c1ccc2c(c1)n(C)c(=O)c(=O)n2C | -11% | 1%
COc1ccccc1NC(=O)c1sc2ncn(CC(=O)N3CCC(C)CC3)c(=O)c2c1C | 11% | 0%
CCc1noc(C)c1C(=O)N1CCN(S(=O)(=O)c2ccc(C(C)C)cc2)CC1 | -27% | nt
Cc1ccc(C)c(SCC(=O)OCC(=O)NCc2ccccc2)c1 | 7% | 5%
O=C(Nc1cccnc1)c1ccccc1Oc1ccccc1 | -16% | -2%
CC(C)CCNC(=O)C(Cc1ccccc1)NS(=O)(=O)c1ccc2c(c1)c(=O)n(C)c(=O)n2C (stereo not given) | ? | 7%&5%
O=C(Nc1ccccc1)N1CCSCC1 | -4% | 6%

Among those listed so far, these contain a thiophene ring, fused or not.
SMILES | TDP1 cell noCPT | TDP1 inh
Cc1nc2c(C(=O)NCc3cccs3)cnn2c(C)c1Cc1ccc(F)cc1 | nt | 2%
CCN(CC)S(=O)(=O)c1ccc(Cl)c(C(=O)NC(C)C(c2cccs2)N2CCCC2)c1 (stereo not given) | 15µM* | 8%
COc1ccccc1NC(=O)c1sc2ncn(CC(=O)N3CCC(C)CC3)c(=O)c2c1C | 11% | 0%

The listing picks up; the three compounds before the break are reprinted first.
SMILES | TDP1 cell noCPT | TDP1 inh
O=C(Nc1cccnc1)c1ccccc1Oc1ccccc1 | -16% | -2%
CC(C)CCNC(=O)C(Cc1ccccc1)NS(=O)(=O)c1ccc2c(c1)c(=O)n(C)c(=O)n2C (stereo not given) | ? | 7%&5%
O=C(Nc1ccccc1)N1CCSCC1 | -4% | 6%
CC(=O)Nc1ccc(Nc2ccc3nonc3c2[N+](=O)[O-])cc1 | ? | 8%
CC(CCn1cccn1)NC(=O)c1cc(COc2ccc(F)cc2F)on1 (stereo not given) | -27% | -3%
O=C(O)CCC(=O)c1c[nH]c2ccccc12 | -10% | -2%
Cc1ccc(C(=O)Nc2ccon2)cc1S(=O)(=O)N1CCCCCC1 | -20% | 0%
COc1ccc(NC(C)=O)cc1NC(=O)CN1CCN(c2ccc(F)cc2)CC1 | -26% | 6%
CCOc1cc(C2C3=C(CCCC3=O)Nc3ccc4ncccc4c32)ccc1O (stereo not given) | ? | 2%
CSc1ccc(Cl)c(C(=O)OCC(=O)N2CC(C)OC(C)C2)c1 (stereo not given) | 7% | -1%
COc1ccc(CCNC(=O)c2n[nH]c(=O)c3ccccc23)cc1 | ? | 0%
COc1cccc(NC(=O)CN2C(=O)NC(C)(CCC(C)C)C2=O)c1 (stereo not given) | -25% | 3%
CCOC(=O)C(NC(=O)Nc1cccc(C)n1)(OCC(F)(F)F)C(F)(F)F (stereo not given) | -8% | 4%
CCC(C)N(C(=O)Cn1nnc2ccccc21)C(C(=O)NCc1ccco1)c1cccc(OC)c1 (stereo not given) | -19% | 0%
O=C(CCCN1C(=O)c2cccc3cccc(c23)C1=O)N1CCN(c2ccccn2)CC1 | ? | 5%
O=C1NC(c2ccc(Cl)cc2)=COc2ccccc21 | -15% | 5%
CCOc1ccc(-c2c(C(=O)N/N=C(\C)c3ccncc3)nnn2-c2nonc2N)cc1 | 1% | -3%
O=C(NC1CCCC1)C1CCCN(S(=O)(=O)c2ccc(-n3cnnn3)cc2)C1 (stereo not given) | -23% | 2%
O=C(COC(=O)c1ccccc1O)Nc1ccc(S(=O)(=O)N2CCCCC2)cc1 | -22% | -1%
Cc1ccc(S(=O)(=O)NC(C)(C)CSc2nnc(N)s2)cc1 | -10% | -2%

Bioassay records deposited in PubChem BioAssay by National Center for Advancing Translational Sciences (NCATS).

An excerpt; most or all hits stand in other tables.
